Bioassay records: PubChem BioAssay, Broad Institute
MLL AF4-AF9 inh: inhibitors of AF4 peptide binding to AF9, primary screen, biochemical, AlphaScreen, biotin-AF4 peptide, FLAG-AF9, single point. inhibition, % at 10 µM. Protein AF-9 (Homo sapiens), P42568. actives 0.47% (n = 350,000);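 active means every replicate reaching a set inhibition limit, whatever the replicate mean, cut at about 25% in these data; inconclusive means mean inhibition reaches that limit but some replicates miss it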;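 further: 0% = plate neutral control median and 100% = total signal loss; the record names both 10 and 1 µM as test concentration; the first replicate is given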
Target sequence (P42568 whole entry, looked up): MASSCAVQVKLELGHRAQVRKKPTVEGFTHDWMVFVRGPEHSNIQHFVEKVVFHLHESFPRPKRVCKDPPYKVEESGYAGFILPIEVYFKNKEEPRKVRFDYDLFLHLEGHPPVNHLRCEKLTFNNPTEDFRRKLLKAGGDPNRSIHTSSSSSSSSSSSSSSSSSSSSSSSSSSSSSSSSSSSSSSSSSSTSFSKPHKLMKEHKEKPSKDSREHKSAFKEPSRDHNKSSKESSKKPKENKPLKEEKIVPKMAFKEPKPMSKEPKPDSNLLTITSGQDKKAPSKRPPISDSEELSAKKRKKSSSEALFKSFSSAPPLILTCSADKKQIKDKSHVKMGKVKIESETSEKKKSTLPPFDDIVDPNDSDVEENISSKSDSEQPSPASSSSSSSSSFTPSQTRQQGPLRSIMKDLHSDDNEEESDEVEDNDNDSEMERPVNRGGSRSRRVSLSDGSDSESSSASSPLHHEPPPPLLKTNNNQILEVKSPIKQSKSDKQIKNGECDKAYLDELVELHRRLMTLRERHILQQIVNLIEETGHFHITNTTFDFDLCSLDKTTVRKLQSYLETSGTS
FGF22 binding: binders of human FGF22 protein, primary screen, FGF22 synaptogenesis inhibitor project, biophysical, thermal shift, single point; recombinant FGF22 thermal shift, SYPRO orange fluorescence; percent of sucrose octasulfate shift, DMSO zero; calls only at 9.99 µM; actives 1.5% (n = 340,000); AID 651658, 2012;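 active means melting point raised past a set limit in the mean and every replicate; inconclusive means no clear call; three in four hits are not shown here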
Target sequence (Q9HCT0 whole entry, looked up): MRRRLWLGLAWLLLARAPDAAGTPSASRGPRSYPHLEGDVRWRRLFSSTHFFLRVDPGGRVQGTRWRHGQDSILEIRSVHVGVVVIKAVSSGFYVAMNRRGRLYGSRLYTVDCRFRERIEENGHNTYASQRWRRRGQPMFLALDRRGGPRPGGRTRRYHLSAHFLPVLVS
ALR H2O2 inh: inhibitors of human ALR sulfhydryl oxidase, primary screen, biochemical, H2O2 detection, HRP-luminol luminescence, single point. FAD-linked sulfhydryl oxidase ALR (Homo sapiens), P55789. purified ALR, DTT oxidation. inhibition, % (concentration not given with the values). actives 3.8% (n = 290,000). AID 485317, 2010;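 active means mean and each replicate at 75% or more; inconclusive means only one of the two met; inactive means neither met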;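 further: stock transfer was 7.5 nL into about 7.5 µL; 0% = neutral wells and 100% = wells with inactivated enzyme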
Target sequence (P55789 whole entry, looked up): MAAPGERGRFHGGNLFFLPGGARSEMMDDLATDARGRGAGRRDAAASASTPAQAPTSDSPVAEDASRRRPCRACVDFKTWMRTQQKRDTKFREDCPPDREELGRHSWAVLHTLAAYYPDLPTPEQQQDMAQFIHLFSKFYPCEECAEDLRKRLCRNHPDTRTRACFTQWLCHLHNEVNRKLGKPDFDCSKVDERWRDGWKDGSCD
Beta cell apopt: inhibitors of cytokine-induced beta cell apoptosis, primary screen, luminescence; INS-1E cytokine-induced death, ATP luminescence, 48 h; percent of positive-control rescue, neutral wells zero; protection from apoptosis, % (test concentration not listed); actives 0.8% (n = 300,000); AID 435005, 2010;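 active means all replicates at 75% or more, or half of them and the mean; inconclusive means half reach 75% but not the mean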;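 further: 0% = cytokine-treated negative control wells and 100% = positive control rescue; higher means more ATP so stronger rescue from cytokine killing; wells of about 40 µL received 100 nL stock; the first replicate is given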
T cruzi repl: inhibitors of intracellular T. cruzi growth, primary screen, luminescence, NIH3T3 host cells; actives 1.4% (n = 300,000); T. cruzi beta-gal in NIH3T3, 90 h; inhibition, % (concentration not given with the values);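 active means mean inhibition across valid replicates above about 55%, limit read from the data; inconclusive means mean below that limit but half or more replicates reach it; inactive means mean below it, under half of replicates reach it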;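 further: signal also drops with host cell toxicity which is not excluded here; 0% = plate median of DMSO wells and 100% = zero luminescence signal; higher percent means less beta-gal luminescence so fewer parasites; stock transfer was 50 nL into about 50 µL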
RanGTP-Imp inh: inhibitors of RanGTP-importin-beta interaction, primary screen, biochemical, FRET, CFP-Ran, YFP-importin-beta, homogeneous; inhibition, % (no concentration beside the values); AID 2216, 2009; cell-free CFP-Ran/YFP-importin-beta FRET ratio; Ran GTPase (GTP-bound) - importin-beta complex; actives 1.1% (n = 300,000);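 active means most replicates above 15%; inconclusive means exactly half above 15%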;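 further: 0% = DMSO wells and 100% = Ran loaded with GDP instead of GTP; wells of about 40 µL received 100 nL stock; the first replicate is given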
Calb FLC: C. albicans growth inhibition with fluconazole, primary screen, CaCi-2 strain, Alamar Blue fluorescence; actives 0.57% (n = 300,000); AID 1979, 2009; C. albicans CaCi-2 (fluconazole-resistant clinical isolate) + fluconazole, 48 h; growth inhibition, % (concentration not given with the values);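 active means most replicates above 75%; inconclusive means exactly half above 75%; inactive means most below 75%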;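 further: all wells also contain fluconazole at 8 µg/ml as a sub-toxic cotreatment; 0% = median of DMSO wells and 100% = median of geldanamycin control wells; wells of about 8 µL received 7.5 nL stock; the first replicate is given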
rRNA inh HTS: reduced GFP signal of wild-type E. coli, primary screen, bacterial rRNA inhibitor project, GFP/RFP fluorescence, OD600, single point. E. coli WT GFP vs humanized-ribosome RFP mutants, 24 h; active compounds read low; DMSO median 0, no signal -100. GFP signal change (wild-type ribosome), % (test concentration not listed). actives 1.6% (n = 350,000). AID 720706, 2013;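 active means significant combined selectivity score with lowered wild-type GFP, culture density cut under 30%, mutant RFP and density less affected; inactive means any of these conditions unmet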; further: one replicate is shown; some compounds called inactive have numbers as strong as hits
rRNA inh HTS OD600: also measured in rRNA inh HTS; calls as there; OD600 change, %; measured here: OD600 growth;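 optical density of the mix in the first replicate; 0 = DMSO median and -100 = no signal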
rRNA inh HTS RFP: recorded beside rRNA inh HTS, whose call it bears; RFP signal change, %; measured here: RFP humanized mutant strains;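 first replicate; 0 = DMSO median and -100 = no signal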
* marks the source's active call; other numbers are inactive results; i = inactive; ? = inconclusive; . = no result given. Some of the compounds tested. The share of hits here may be higher or lower than overall.

Screens in order – MLL AF4-AF9 inh, FGF22 binding, ALR H2O2 inh, Beta cell apopt, T cruzi repl, RanGTP-Imp inh, Calb FLC, rRNA inh HTS, rRNA inh HTS OD600, rRNA inh HTS RFP
> COC(=O)c1ccccc1NC(=S)N(Cc1ccc2c(c1)OCO2)Cc1cc2cc(C)ccc2[nH]c1=O
 : 4.3, i, -22, ., 43, 0.4, 2, 6, 12, 16
> COC(=O)C(C)Oc1ccc2c(c1)O/C(=C\c1ccco1)C2=O (stereo not given)
 : 14, i, ., -7, -3, 21*, -19, 9, 16, 2.0
> COc1cc(OC)c(-c2nc3cnccc3n2C)cc1OC
 : 0.0, ., ., 3, -10, 0.5, 4, ., ., .
> O=C(c1cccs1)N1CCn2c1nc1ccccc12
 : ., ., -12, 3, -11, -0.2, -17, ., ., .
> CCN(CC)S(=O)(=O)c1cc(NC(=O)COC(=O)CCC(=O)c2ccc(F)cc2)ccc1C
 : ., ., -4, -7, 4, 2.0, 11, ., ., .
> Cc1ccc(-n2c(C)nc3oc4ccccc4c(=O)c3c2=O)cc1
 : ., ., -29, 2, 8, 3.8, -7, ., ., .
> O=C(COC(=O)c1ccc(S(=O)(=O)NCc2ccco2)cc1)Nc1ncc(Cl)cc1Cl
 : ., ., 3, -8, 2, ?, -7, ., ., .
> COc1ccc(N2CCN(C(=O)CCc3ccccc3)CC2)cc1
 : 3.5, i, 97*, -4, -2, -5.2, -4, 0, -1, 1.2
> CCOC(=O)N1CCN(C(=O)c2ccc3nc(C)sc3c2)CC1
 : ., ., -6, 0, -2, 0.3, -1, ., ., .
> CC(C)CN(CC(C)C)S(=O)(=O)c1cc([N+](=O)[O-])ccc1N1CCCCCC1
 : ., ., 0, 52, 26, 0.0, 2, ., ., .
> CC1CCCCC1NS(=O)(=O)CCNC(=O)c1ccc2c(c1)OCO2 (stereo not given)
 : 0.4, i, ., ., 0, 1.3, 3, 8, 14, 2.1
> COc1ccc(C2C(C(=O)N3CCOCC3)CCC(=O)N2c2ccc(OC)cc2)cc1 (stereo not given)
 : ., ., 4, ., -23, 2.0, 10, ., ., .
> CCSc1nc2c([nH]c3ccccc32)c(=O)n1C
 : 2.4, i, 1, -4, 10, 8.3, 4, 9, 8, -3.2
> CCOc1ccccc1NC(=O)c1ccc(CN2CCc3ccccc3C2)cc1
 : 1.1, i, -6, -1, 7, -5.0, 0, -8, -3, -1.1
> CCCNC(=O)Cn1cnc2sc(C(=O)Nc3cc(OC)c(OC)c(OC)c3)c(C)c2c1=O
 : 13, i, -2, -6, -5, -0.9, -2, 9, 13, 4.0

The listing continues:
Screens in order – MLL AF4-AF9 inh, FGF22 binding, ALR H2O2 inh, Beta cell apopt, T cruzi repl, RanGTP-Imp inh, Calb FLC, rRNA inh HTS, rRNA inh HTS OD600, rRNA inh HTS RFP
> O=C(CN1c2cccc3cccc(c23)S1(=O)=O)N1CCOCC1
 : ., ., -57, -4, -13, 4.8, 1, ., ., .
> C=CCc1cc(/C=C2/NC(=O)N(CC)C2=O)cc(OCC)c1OCc1ccc(C(=O)O)cc1
 : ., ., ., -14, -5, -3.3, -6, ., ., .
> Cc1ccc(NCN2C(=O)C(=O)c3ccccc32)nc1
 : ., ., -10, -7, -2, 3.2, -43, ., ., .
> COc1ccc(-c2nnn(CC(=O)N3CCN(c4ccccc4OC)CC3)n2)cc1OC
 : -5.6, i, ., -10, 11, 2.1, 10, -17*, -0.9*, 0.4*
> COc1cc(C2CC(=O)c3cnc(NC(C)=O)nc3C2)cc(OC)c1OC (stereo not given)
 : ., ., -11, 3, 4, 1.3, -4, ., ., .
> C/C(=N\OCC(=O)OCC(=O)NC(=O)c1ccc(OC(F)F)cc1)c1ccc2c(c1)OCO2
 : -1.7, i, -1, 0, -9, 1.1, -7, 10, 12, -0.7
> CC(OC(=O)c1ccc2c(=O)n3c(nc2c1)CCC3)C(=O)NC1CCCCC1C (stereo not given)
 : -1.2, i, 13, -3, 4, 1.7, 5, 3, 10, -0.9
> COc1cccc(N=c2oc3ccccc3cc2-c2nc3ccccc3[nH]2)c1
 : ., ., -27, 27, 11, -5.1, -7, ., ., .
> Cc1cc(/C=C(\C#N)C(=O)NC2CC2)c(C)[nH]1
 : ., ., 13, ., 3, -2.5, -3, ., ., .
> COc1cc(OC)c(NC(=O)CCNS(=O)(=O)c2ccc3c(c2)CC(C)N3C(C)=O)cc1Cl (stereo not given)
 : 1.5, i, -21, ., -18, ?, -5, -5, -8, -1.9
> O=C1C=CC(=O)N1c1ccc(Sc2ccc([N+](=O)[O-])cc2)cc1
 : ., ., 1, -2, 5, -5.1, -3, ., ., .
> Cc1nn(C)cc1CNC(=O)C1C2CCC(O2)C1C(=O)O (stereo not given)
 : ., ., 7, -2, -14, -0.6, -2, ., ., .
> O=C(NCc1ccccc1)N1CCn2c(nc3ccccc32)C1
 : -1.0, i, 1, -20, 0, 2.3, 1, -13, -21, -3.8
> CCCC(=O)Nc1cc(=O)n(C)c(=O)n1C
 : 0.7, i, ., -8, -7, -1.3, 8, 4, 7, 0.0
> C[n+]1c(/C=C/c2ccc(O)cc2)ccc2ccccc21
 : 8.9, i, 99*, 11, 34, -24, 36, -11, 32, 27

Other compounds follow:
Screens in order – MLL AF4-AF9 inh, FGF22 binding, ALR H2O2 inh, Beta cell apopt, T cruzi repl, RanGTP-Imp inh, Calb FLC, rRNA inh HTS, rRNA inh HTS OD600, rRNA inh HTS RFP
> O=C(NCCO)C(F)(F)C(F)(F)C(F)(F)OC(F)(C(=O)NCCO)C(F)(F)F (stereo not given)
 : -6.2, i, -2, -10, -8, -3.2, 33, 17, 17, -4.1
> Fc1ccccc1Cc1noc(CN(Cc2ccccn2)CC2CCCO2)n1 (stereo not given)
 : -0.6, i, -11, -1, 1, -1.2, 2, 2, -4, 0.7
> C=CCn1cccc(C(=O)Nc2ccc(F)cc2)c1=O
 : -0.5, i, 0, 2, -15, -2.0, 11, -1, 1, 2.9
> O=C(Nc1cccc(S(=O)(=O)N2CCOCC2)c1)c1cnccn1
 : -0.8, i, -4, -1, -12, -0.8, -3, 15, 17, 1.9
> O=C(CCc1ccccn1)N1CCCC(Nc2ccc(F)cc2)C1 (stereo not given)
 : -9.8, i, 99*, 3, 21, 0.2, 7, 11, -1, 0.7
> CC(C)c1ccc(NS(=O)(=O)c2cn(C)c(=O)n(C)c2=O)cc1
 : 2.5, i, 14, -1, -10, 1.9, 3, 5, 14, -3.2
> COc1ccc(-c2cnc(OC(C)(C)C)nc2OC(C)(C)C)cc1OC
 : ., ., -20, 2, 16, -0.9, ?, ., ., .
> O=C(C1CCCCC1)N1CCC(c2nc3ccccc3[nH]2)CC1
 : ., ., 1, 2, 14, 1.8, 4, ., ., .
> CCc1nnc(NC(=O)[C@@H](NC(=O)c2cccc(C)c2)C(C)C)s1
 : 2.0, i, -6, 0, 1, -2.6, -7, 12, 20, 14
> Cc1ccc(S(=O)(=O)Nc2ccc3c(c2)nc(CN2CCCC2)n3C)cc1
 : ., ., -23, -1, -2, 2.6, 1, ., ., .
> O=C1C(=O)N(CCN2CCOCC2)C(c2cccc(Cl)c2)/C1=C(/O)c1ccc2c(c1)OCO2 (stereo not given)
 : -1.2, i, 1, -9, -8, ., ., 6, 7, 4.1
> O=C(CC1Oc2ccccc2NC1=O)NCCCN1CCN(Cc2ccccc2)CC1 (stereo not given)
 : ., ., -37, ., -2, -0.1, -1, ., ., .
> CCC(C)C(=O)Nc1nc(C)c(-c2csc(Nc3ccc(Cl)cc3)n2)s1 (stereo not given)
 : 3.5, i, 1, -1, 58*, 3.4, -2, 11, -1, -0.4
> C/C(CC(=O)Nc1ccc(C)c(Cl)c1)=N\NC(=O)C1CCCCC1
 : 2.6, i, -7, -11, -1, 6.1, -2, 4, 6, -1.3
> O=C(OCN1C(=O)c2ccccc2C1=O)c1cccnc1SC(F)F
 : 0.8, i, -2, -4, -2, 0.4, -1, 5, 18, -0.3

(further entries)
Screens in order – MLL AF4-AF9 inh, FGF22 binding, ALR H2O2 inh, Beta cell apopt, T cruzi repl, RanGTP-Imp inh, Calb FLC, rRNA inh HTS, rRNA inh HTS OD600, rRNA inh HTS RFP
> CC1(C)CC(=O)C(C=NCCN2CCN(C(=O)C34CC5CC(CC(C5)C3)C4)CC2)=C(O)C1
 : ., ., -1, 0, -15, 0.1, -7, ., ., .
> Cc1ccc(N(C(=O)c2snc(C(N)=O)c2N)C(C(=O)NCc2ccccc2)c2ccncc2)c(C)c1 (stereo not given)
 : -1.7, i, -4, -4, 14, -0.7, 1, ., ., .
> CNC[C@@H]1Oc2ccc(NS(=O)(=O)c3ccc(OC)cc3)cc2CC(=O)N([C@H](C)CO)C[C@@H]1C
 : -0.7, i, 0, -7, ., ., ., 0, -11, 1.4
> O=C(C[C@@H]1C/C=C\CC[C@H](Cc2ccc(F)cc2)C(=O)OC[C@@H]2CCCN2C1=O)NCCO
 : 3.8, i, -1, -6, ., ., ., -5, 10, 2.6
> CCOc1ccc2nc3c(cc2c1)CN(CCOC)C(=NCCOC)S3
 : ., ., -11, ., 16, -0.6, -4, ., ., .
> COc1cc(NC(=O)CSCc2ccc(Cl)cc2Cl)c(C(=O)O)cc1OC
 : -5.3, i, 73, -8, 0, 2.4, 1, -20*, -10*, 1.3*
> Cc1cc(NC(=O)COC(=O)C2CC(=O)N(c3ccccc3Cl)C2)no1 (stereo not given)
 : 0.6, i, 5, -9, -12, 4.7, 2, 1, 13, 0.3
> O=C(NCc1ccco1)c1c2c(nc3ccccc13)CCC2
 : ., ., -8, -1, -16, 6.8, -15, ., ., .
> CCN(c1ccccc1)S(=O)(=O)c1ccc(NC(=O)c2nc(S(C)(=O)=O)ncc2Cl)cc1
 : ., ., 9, 98*, 0, 6.5, 0, ., ., .
> CCOc1ccc(Oc2nc(C)cc(OC)n2)nn1
 : 2.1, i, -4, 5, 1, -5.2, -14, 9, 3, -3.7
> CCOc1ccc(C(=O)COC(=O)CC)cc1
 : ., ., -13, -6, -19, 2.6, -5, ., ., .
> COC(=O)C(Cc1ccc(O)cc1)NC(=O)C(C)Oc1ccccc1 (stereo not given)
 : ., ., 11, 4, -20, 6.7, 43, -3, -2, 1.5
> CCc1cc2cc(C)c(C)cc2nc1SCC(=O)Nc1cc(C)on1
 : -3.6, i, -1, 5, -30, -1.0, -2, 14, 10, 3.1
> NCCCCCCNS(=O)(=O)c1cccc2c(Cl)cccc12
 : 2.6, i, -9, ., -7, 0.3, 16, -9, -25, -1.2
